VACV mCherry inh – vaccinia inhibition (mCherry reporter); Vaccinia virus mCherry reporter infection, fluorescence; about a quarter of the inactives have no number; Potency, µM (titrated, usually from 36.5 µM), without a hit: at the highest dose activity change, negative = inhibition, usual class: inhibitors; actives 0.63% (n = 310,000); AID 720579; active = well fitted inhibition curve with a large enough effect; inconclusive = small, poorly fitted or top-dose-only effect; inactive = no such curve, though single readings can be large or run the other way; tested in A549 cells; further: nearly all actives have a fitted effect of over 35% in size; inactives centre near -10
Vaccinia Venus – inhibitors of vaccinia virus (Venus reporter). Potency, µM (top dose mostly 36.5 µM), for the others: at the top dose activity change, negative = inhibition, most hits filed as inhibitors. Vaccinia virus Venus reporter expression, fluorescence. AID 720580. actives 0.46% (n = 330,000); active means well fitted inhibition curve with a large enough effect; inconclusive means small, poorly fitted or top-dose-only effect; inactive means no such curve, though single readings can be large or run the other way; tested in A549 cells; further: nearly all actives have a fitted effect of over 30% in size; inactives centre near -10
The depositor's hits bear a star; i = inactive; ? = inconclusive; . = no result given; & = joins results of further samples; [ ] = dose if it differs, or a comment. On the % scale 0 is the no-effect control and ±100 the full control effect; potency means the concentration at half of the fitted maximal effect. Rows are unselected, and some 0.82% of all compounds hit somewhere here.

SMILES | VACV mCherry inh | Vaccinia Venus
Cc1ccc(C(c2sc3nc(-c4ccco4)nn3c2O)N2CCN(Cc3ccccc3)CC2)cc1 (stereo not drawn) | -14% | -12%
COc1ccccc1N1CCN(C(=O)CSc2nc3ccccc3nc2N2CCCCC2)CC1 | -22% | -26%
CCCCn1c(N)c(N(CCC(C)C)C(=O)CSc2nnc(Nc3ccccc3)s2)c(=O)[nH]c1=O | 0% | -14%
Cc1ccc(Nc2cc(C(=O)NCCCN3CCOCC3)c3ccccc3n2)cc1C | -6%[7.34 µM] | -8%[7.34 µM]
CC1=C(C(=O)OCC2CCCCC2)C(c2ccccc2F)NC(=O)N1 (stereo not drawn) | i | -7%
COc1ccccc1-c1ccc(SCc2cccc(F)c2)nn1 | i | -8%
CCOC(=O)C1(Cc2ccccc2C#N)CCCCC1=O (stereo not drawn) | i | 0%
Cc1ccc2ccc(C(Nc3ccccn3)c3ccccc3)c(O)c2n1 (stereo not drawn) | ? | -5%&-17%
Cc1cc(C)n2[nH]c(=O)c(N=Nc3ccc(S(N)(=O)=O)cc3)c2n1 | -11% | -14%
O=c1[nH]c(CN2CCN(S(=O)(=O)c3ccc(Cl)cc3)CC2)nc2cc(Cl)ccc12 | -9% | -19%
COC(=O)N/N=C1\CCCc2ccccc21 | -11% | -2%
Cn1c(C(=O)OCC(=O)NCc2ccco2)cc2sccc21 | -20% | -17%
CN(CCc1ccccc1)C(=O)c1ccc(NC(=O)Cc2ccc(NC(=O)C3CCCN(C(=O)C4CCCCC4)C3)cc2)cc1 (stereo not drawn) | ? | -22%
COc1ccc(NC(=O)Cn2c(C)cc3ccccc3c2=O)c(OC)c1 | -6% | -2%
CCCCN(C(=O)c1cc(OC)c(OC)c(OC)c1)C1=CC2CCC(C1)N2C (stereo not drawn) | . | -13%
Cc1ccc(C(=O)N/C(=C/C=C\c2ccccc2)C(=O)NCc2ccco2)cc1 | -4% | 1%
CCc1nc2c(OCCn3cccc3)cccn2c1N(C)C(=O)c1ccc(C)cc1 | -6% | -5%
Cc1ccccc1OCC(=O)Nc1ccc(N2CCN(C(=O)C(C)C)CC2)c(Cl)c1 | ? | ?
CCCn1c(SCC(=O)Nc2cccc(C)n2)nnc1C(C)C | -24% | -9%
C=CCn1c(N)cc(=O)nc1SC(C)C(=O)Nc1ccc(C(=O)OCC)cc1 (stereo not drawn) | -14% | -11%
COc1ccc(Cn2c(CO)cnc2SCc2ccccc2C)cc1 | -11% | -21%
COc1cc(C(C)=O)ccc1OCc1cn(CC(=O)c2ccc(O)cc2)nn1 | -13% | 4%
CC(C)N(C(=O)[C@H]1C[C@H](CC(=O)NCCc2ccccn2)C(=O)N2CCc3c([nH]c4cc(-c5ccco5)ccc34)[C@]12C)C(C)C | -19% | ?
CCN(CC(=O)Nc1ccc2c(c1)OCCO2)C(=O)COc1ccc(C(C)=O)cc1 | -24% | -8%
CCn1c(CCNC(=O)c2ccc(C)cc2)n[nH]c1=S | i | -12%
Cc1n[nH]c(C)c1CCC(=O)N/N=C/c1c(C)[nH]c2ccccc12 | -17% | -23%
O=C1CCc2cc(S(=O)(=O)N3CCCCC3)cc3c2N1CC3 | 0% | 12%
O=C(Nc1ccc(NC(=O)c2cccs2)cc1)c1ccc(Br)cc1 | 2% | -10%
Cn1cccc1/C=N/n1c(-c2ccc(Cl)cc2)n[nH]c1=S | . | -7%
CC(C)(C)c1[nH]nc2c1C(c1ccc(OC(=O)c3ccco3)cc1)C(C#N)=C(N)O2 (stereo not drawn) | ? | ?
CCOc1ccccc1-c1nc(SCC(=O)c2ccc(OC)c(Br)c2)n[nH]1 | -23% | -11%
COc1ccc(OC)c(C(c2nnnn2CCc2ccccc2)N2CCN(c3ccccc3)CC2)c1 (stereo not drawn) | -25% | -19%
CC(C)(C)NC(=O)C1c2ccccc2OCC(=O)N1CCCN1CCOCC1 (stereo not drawn) | 16% | 11%
O=C(COC(=O)c1cnc(Cl)c(Cl)c1)NC1CCCC1 | -6% | -16%
CC(Sc1ncccn1)C(=O)N1CCc2ccccc21 (stereo not drawn) | i | -12%
Clc1ccc(COc2cccc(CNCc3ccncc3)c2)cc1 | -20% | -22%
CCOC(=O)C1=C(N)OC2=C(C(=O)CC(C)C2)C1c1cccnc1 (stereo not drawn) | -7% | -3%
Nc1c(Cl)cc(C2=NCCn3nc4ccccc4c32)cc1Cl | -22% | -28%
Nc1cc(CN2C(=O)c3ccccc3C2=O)cc(Cl)c1O | i | -20%
O=C(Nc1c(C(=O)O)[nH]c2ccccc12)NC1CCCCC1 | -23% | -6%

A second format for some results above.
O=C(COC(=O)c1cnc(Cl)c(Cl)c1)NC1CCCC1
  VACV mCherry inh: -6%
  Vaccinia Venus: -16%
O=C1CCc2cc(S(=O)(=O)N3CCCCC3)cc3c2N1CC3
  VACV mCherry inh: 0%
  Vaccinia Venus: 12%

Continued:
SMILES | VACV mCherry inh | Vaccinia Venus
O=C(NNC(=O)c1ccccc1O)c1ccc(S(=O)(=O)Nc2ccccc2)cc1 | -23% | -14%
O=c1c2c3c(sc2ncn1Cc1ccc(F)cc1)CCC3 | -8% | -15%
O=C(Cn1ncc(Cl)c(Cl)c1=O)NCC1CCCCC1 | -26% | ?
COc1ccc(S(=O)(=O)N(CC(=O)NCCSCc2ccccc2)c2ccc(C)cc2)cc1 | -12% | -7%
CC(=O)c1cccc(N=C2NC(=O)CS2)c1 | . | -10%
CC(C)OC(=O)Nc1ccc2c(c1)N(C(=O)CCN1CCN(CCO)CC1)c1ccccc1CC2 | -15% | -13%
CCCOC(=O)c1ccc(NC(=O)C2CC(=O)N(c3ccc(C)cc3)C2)cc1 (stereo not drawn) | -4% | 1%
CCCCn1c(N)c(N(CCOC)C(=O)c2cnccn2)c(=O)[nH]c1=O | i | -13%
COc1ccccc1CNC(=O)COC(=O)c1cnccn1 | -2%[1.46 µM] | -13%
Cc1cccc(-c2nc3c(C#N)c[nH]n3c2NC2CCCCC2)c1 | ? | ?
COC(=O)c1cccc(NC(=O)Nc2ccc(Cl)cc2Cl)c1 | -27% | -19%
Nc1nc(NC(=O)c2ccc(F)cc2)ns1 | ? | ?
C=CCSc1nc(=O)n2ccccc2n1 | -13% | -7%
COc1ccc(CNC[C@H]2O[C@@H](n3cnc4c(N)ncnc43)[C@H](O)[C@@H]2O)cc1OC | -12% | -7%
CCn1c(SCC(=O)N2CCC(C)CC2)nc2c1c(=O)n(C)c(=O)n2C | -5% | -12%
CC(=O)Nc1ccc(N/C=C(\C=O)c2nc3ccccc3o2)cc1 | 0% | -22%
Cn1cnnc1SCC(=O)c1c(N)n(Cc2ccccc2)c(=O)n(C)c1=O | -7% | -4%
CC(C)(C)NC(=O)C(=O)NCc1ccccn1 | 12% | 12%
Cc1ccc(-c2nc(NCc3ccco3)n(C(=O)c3ccco3)n2)cc1 | i | -5%
COc1ccc(NC(=O)CCS(=O)(=O)c2cc3c(cc2C)NC(=O)CO3)cc1Cl | -5% | -2%
CC(C)(C)NC(=O)C(c1ccc(O)cc1)N(Cc1ccc2c(c1)OCO2)C(=O)CCl (stereo not drawn) | -6% | -18%
Cc1ccc(NC(=O)CSc2ccc(-c3ccco3)nn2)cc1 | -2% | -7%
COCCCn1c(SCC(=O)Nc2sc3c(c2C#N)CCCC3)nnc1-c1ccncc1 | -5%[1.46 µM] | -15%
CCN(CC)CCNC(=O)c1ccc2nc(CCc3ccccc3)oc2c1 | -2% | 3%
COC(=O)C1=C(c2ccc(S(C)(=O)=O)cc2)C[C@@H]2CC[C@H]1N2C(=O)N1CCC(O)CC1 | i | 3%
CSc1ccc(CNC(=O)C2CCC(=O)N(Cc3cccc(F)c3)C2)cc1 (stereo not drawn) | -9% | -17%
COc1cc(C(=O)N2CCC(N3CCCCCC3)CC2)cc(OC)c1OC | . | -9%
COc1ccccc1NC(=O)Nc1ccccc1SC | i | -6%
O=C(CC[C@H]1O[C@@H](n2ccc(=O)[nH]c2=O)[C@H](O)[C@@H]1O)N[C@H](Cc1ccccc1)C(=O)NCc1cccs1 | 22% | -9%
COc1cccc(/C=N/NC(=O)c2cccc(N3CCCC3=O)c2)c1 | -4% | 3%
O=C1C=C(c2cccc(Cl)c2)C[C@@H](c2ccc3c(c2)OCO3)C1 | -4% | -6%
Cn1cnc(S(=O)(=O)N2CCC(C(=O)N3CCN(c4ccc(Cl)cc4)CC3)CC2)c1 | -14% | -18%
Cc1ccc(Nc2nc(N)c([N+](=O)[O-])c(NCc3ccco3)n2)cc1C | -21% | ?
Cc1ccccc1C(=O)NNC(=O)c1ccncc1 | -25% | -19%
CCCc1cc(=O)[nH]c(SCC(=O)Nc2ccccc2C#N)n1 | . | -8%
NNC(=O)COc1ccc(C2SCCS2)cc1 | i | -1%
Cc1cc(C)cc(C(=O)Nc2nnc(SCC(=O)N3CCCc4ccccc43)s2)c1 | i | -14%
CCOC(=O)c1cc(S(=O)(=O)N2CCN(c3ccc(F)cc3)CC2)[nH]n1 | 0% | -9%
CSc1ccccc1NC(=O)Cc1ccccc1 | -10% | -8%
O=C(c1ccc2c(c1)N(Cc1ccccc1F)C(=O)c1ccccc1S2(=O)=O)N1CCN(c2ccccn2)CC1 | 8% | 3%
COC(=O)C(NC(=O)CCc1nnc2ccc(N3CCCCC3)nn12)C(C)C (stereo not drawn) | i | -6%
OCCNCc1cccc(Br)c1 | -10% | -16%
CC(C)c1ccc(S(=O)(=O)N2CCN(C(=O)C3CC3C)CC2)cc1 (stereo not drawn) | -2% | -8%
COc1ccc(NC(=O)c2ccc3c(c2)C(=O)N(CC2CCCO2)C3=O)cc1O (stereo not drawn) | i | -6%
Cc1n[nH]c(C)c1CCNC(=O)C1CCC(=O)N(CCc2cccc(F)c2)C1 (stereo not drawn) | -7% | -9%
COCCCN(C(=O)Cn1ncc2c(=O)oc3ccc(C)cc3c21)C(C)c1ccncc1 (stereo not drawn) | i | -11%
CC(=O)OC1CC2C(C)(C)C=CC(=O)[C@@]2(C)C2CC[C@@]3(C)C(c4ccoc4)OC(=O)C4OC43[C@]12C (stereo partly drawn) | -3% | -12%
Clc1cccc(-n2ncc3c(NCCCc4ccccc4)ncnc32)c1 | -19% | -7%
CCc1cccc2c(SC(C)C(=O)NCC3CCCO3)nc(-c3ccccc3)nc12 (stereo not drawn) | 0% | 3%
CCOc1ccccc1NC(=O)c1cccc(NC(=O)c2ccco2)c1 | . | ?
COc1ccc(-c2cc(NC(C)=O)c3ncc(-c4cc(OC)c(OC)c(OC)c4)n3c2)cn1 | -18% | -26%
Cc1ccc(-c2cn3c(n2)sc2cc(C(=O)NC4CCCCCC4)ccc23)c(C)c1 | 3% | -3%
C=C(C)c1cccc(C(C)(C)NC(=O)Nc2nncs2)c1 | -12% | -14%
Cc1cccc(C)c1NC(=O)C1(C)CN(S(C)(=O)=O)CC(=O)N1CCc1c[nH]c2ccccc12 (stereo not drawn) | -3% | -7%
NCCc1ccc(S(=O)(=O)F)cc1 | i | -18%
CC(C)c1ccc2occ(CC(=O)Nc3cccc(C(F)(F)F)c3)c2c1 | -21% | -20%
COc1ccc(OCC(=O)N2CCN(C(=O)c3cc(OC)c(OC)c(OC)c3)CC2)cc1 | -4% | 3%
CN1C(=O)c2ccccc2N(C)C1c1ccc(F)cc1 (stereo not drawn) | i | -19%
CCCCNC(=O)C1(C)CCC(=O)N1C1CCN(Cc2ccccc2)CC1 (stereo not drawn) | 13% | -3%
Cc1cc(NC(=O)C(C)SCC(=O)OC(C)C(=O)Nc2ccc(F)cc2Cl)no1 (stereo not drawn) | -20% | -9%

Following part.
SMILES | VACV mCherry inh | Vaccinia Venus
O=C1Cc2cc(S(=O)(=O)N3CCN(c4ccccc4)CC3)ccc2N1 | -4%&2% | -7%&-3%
CN1CCN(C(CNC(=O)C(=O)Nc2ccc(F)cc2)c2cccnc2)CC1 (stereo not drawn) | -10% | -2%
O=C(CCC(=O)N1CCOc2ccccc21)N1CCOCC1 | i | -5%
CCOC(=O)NCc1ccc2[nH]c(C)cc2c1 | ? | -11%
CC1(C)CC(=O)C(C=NCCO)=C(O)C1 | -5% | 5%
O=C1CC(c2ccc(S(=O)(=O)N3CCCCC3)cc2)CN1 (stereo not drawn) | -8% | -18%
C/C(CC(=O)Nc1ccccc1C#N)=N\NC(=O)c1ccncc1 | 1% | -10%
CC1(C)CC(=O)/C(=C\c2cccc([N+](=O)[O-])c2)C(C)(C)N1 | ? | -19%

Complete entries as entered above:
`COc1ccccc1CNC(=O)COC(=O)c1cnccn1` across the screens: VACV mCherry inh: -2%[1.46 µM]; Vaccinia Venus: -13%
`C/C(CC(=O)Nc1ccccc1C#N)=N\NC(=O)c1ccncc1` across the screens: VACV mCherry inh: 1%; Vaccinia Venus: -10%
`O=C(COC(=O)c1cnc(Cl)c(Cl)c1)NC1CCCC1` across the screens: VACV mCherry inh: -6%; Vaccinia Venus: -16%

Some of the entries so far, with values under each structure.
Below each SMILES – VACV mCherry inh, Vaccinia Venus
Cc1ccc(-c2cn3c(n2)sc2cc(C(=O)NC4CCCCCC4)ccc23)c(C)c1
→ 3%, -3%
C=C(C)c1cccc(C(C)(C)NC(=O)Nc2nncs2)c1
→ -12%, -14%
Cc1cccc(C)c1NC(=O)C1(C)CN(S(C)(=O)=O)CC(=O)N1CCc1c[nH]c2ccccc12 (stereo not drawn)
→ -3%, -7%
